Assay outcomes from PubChem.
NPR1 antag: Natriuretic polypeptide receptor (hNpr1) antagonism - Primary qHTS. Atrial natriuretic peptide receptor 1 (Homo sapiens), P16066. HEK293 hNpr1 GloSensor cGMP, ANP-stimulated luminescence. Potency, µM (doses to about 46.3 µM), without a hit: top-dose activity change, negative = inhibition, actives largely listed as inhibitors. hit rate 1.6% among 76,000. AID 1347048, 2019; active = well fitted inhibition curve with a large enough effect; inconclusive = small, poorly fitted or top-dose-only effect; inactive = no such curve, though single readings can be large or run the other way;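 further: nearly all actives have a fitted effect of over 60% in size; nearly all hits also lower the signal before the agonist is added; a reference antagonist and vehicle were the controls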
Target sequence (P16066 whole entry, looked up): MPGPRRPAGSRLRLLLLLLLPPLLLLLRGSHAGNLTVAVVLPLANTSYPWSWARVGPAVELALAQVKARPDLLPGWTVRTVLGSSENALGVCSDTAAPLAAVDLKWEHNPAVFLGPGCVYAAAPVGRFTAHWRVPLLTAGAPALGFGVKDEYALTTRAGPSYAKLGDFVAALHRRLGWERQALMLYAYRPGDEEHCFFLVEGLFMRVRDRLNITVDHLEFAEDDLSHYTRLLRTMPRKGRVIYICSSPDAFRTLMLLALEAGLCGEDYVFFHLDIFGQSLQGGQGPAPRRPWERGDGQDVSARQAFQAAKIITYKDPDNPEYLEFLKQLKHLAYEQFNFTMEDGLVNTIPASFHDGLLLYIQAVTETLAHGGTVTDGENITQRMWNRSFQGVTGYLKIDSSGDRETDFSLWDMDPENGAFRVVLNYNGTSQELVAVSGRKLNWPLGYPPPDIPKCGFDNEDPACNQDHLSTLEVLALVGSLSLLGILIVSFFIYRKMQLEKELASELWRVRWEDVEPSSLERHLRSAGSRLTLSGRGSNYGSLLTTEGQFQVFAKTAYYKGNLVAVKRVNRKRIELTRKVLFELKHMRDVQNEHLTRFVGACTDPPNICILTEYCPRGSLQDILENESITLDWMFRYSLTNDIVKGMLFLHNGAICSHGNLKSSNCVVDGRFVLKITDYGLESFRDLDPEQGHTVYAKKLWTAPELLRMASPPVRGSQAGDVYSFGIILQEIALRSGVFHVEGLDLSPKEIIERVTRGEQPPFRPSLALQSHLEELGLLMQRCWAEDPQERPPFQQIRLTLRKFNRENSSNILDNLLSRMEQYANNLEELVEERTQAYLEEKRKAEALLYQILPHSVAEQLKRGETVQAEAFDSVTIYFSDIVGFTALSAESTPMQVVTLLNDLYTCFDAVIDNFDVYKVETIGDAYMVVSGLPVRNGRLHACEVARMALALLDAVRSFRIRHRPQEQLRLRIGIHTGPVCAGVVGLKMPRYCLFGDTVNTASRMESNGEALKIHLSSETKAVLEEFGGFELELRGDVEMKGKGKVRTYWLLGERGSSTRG
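Compound pre-incubated 30 min at room temperature on GloSensor-loaded HEK293 cells stably carrying hNpr1 and the pGS-40F cGMP biosensor. Stimulation uses hNppA at 0.1 nM final; luminescence is taken at baseline and 20 min post-agonist.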
Numbers without * were called inactive; u = inconclusive; [ ] = remark or other dose. On the % scale 0 is the no-effect control and ±100 the full control effect; potency means the concentration at half of the fitted maximal effect.

molecule,NPR1 antag
O=C(C[C@@H]1CCNC[C@@H]1Cc1cc(-c2ccc(F)cc2)on1)N1CCC(Cc2ccccc2)CC1,0.8%
Cc1ccsc1C(=O)NCCn1c(C)cnc1C1CCC1,-15.3%
COc1ccc(CNC(=O)CC2CCOCC2)cc1,-3.8%
CCN1c2cc(C(=O)Nc3ccc(C)c(Cl)c3)ccc2C(=O)N2CCCC21 (configuration not stated),0.0%
COc1cccc(C(=O)N2C(C(=O)NC3CC3)COC23CCN(C(=O)c2ccc(F)cc2)CC3)c1 (configuration not stated),-3.3%
c1ccc(-c2nc(C3CC3)no2)c(OC2CN(Cc3ccncc3)C2)c1,-0.2%
COC1CCC12CCN(C(=O)c1ccc(C)s1)CC2 (configuration not stated),2.6%
C[C@H]1[C@@H]2[C@@H](O)C([C@H](C)C(=O)NC3CC3)CC[C@@]2(C)CC[C@@H]1NC(=O)c1cnccn1 (some centres not stated),3.3%[70.6 µM]
O=C(Cn1ccn2nc3c(c2c1=O)CCCC3)NCCc1ccccc1,-3.2%
CO[C@H]1C(=O)N(C(C)C)[C@H]1C1CCN(S(=O)(=O)c2cn(C)cn2)CC1,1.8%
COCCO[C@H]1C(=O)N(C2CCN(C(=O)c3ocnc3C)CC2)[C@H]1c1ccncc1,-0.3%
CC(C)CCC(=O)N[C@@H]1CN(Cc2ccncc2)C[C@H]1CN(C)C,3.3%
Cc1ccccc1NC(=O)CCn1ccn2nc3c(c2c1=O)CCCC3,-1.2%
Cn1nc2n(c1=O)CCN(S(=O)(=O)c1ccc(Cl)s1)CC2,-7.5%
O=C(c1[nH]nc2c1CCc1ccccc1-2)N1CCC(c2noc(-c3cccnc3)n2)C1 (configuration not stated),12.6µM*
COc1ccc(-c2noc(CC3CCN(C(=O)Cc4ccccc4Cl)CC3)n2)cc1,10µM*
O=C1[C@@H]2C[C@@H](CN2C2CCOCC2)Oc2ccccc2N1Cc1ccc(OC(F)(F)F)cc1,-4.5%
COc1ccc(CC2CCOC3(CCN(C(=O)c4cc5ccccc5[nH]4)CC3)C2)cc1 (configuration not stated),-12.5%
CN(C)S(=O)(=O)N1C[C@@H](Oc2cccnc2)C[C@H]1C(=O)N1CCOCC1,3.2%
NS(=O)(=O)c1ccc(F)c(C(=O)NC2CCc3[nH]ncc3C2)c1 (configuration not stated),1.3%

Given with each value named: part of the list above.
c1ccc(-c2nc(C3CC3)no2)c(OC2CN(Cc3ccncc3)C2)c1
- NPR1 antag = -0.2%
COC1CCC12CCN(C(=O)c1ccc(C)s1)CC2 (configuration not stated)
- NPR1 antag = 2.6%

Continuation.
molecule,NPR1 antag
O=C(COc1ccccc1)Nc1cccn2nc(C3CCC3)nc12,2.7%
O=C(NC1CC1)[C@@H]1C[C@H](Oc2ccccc2)CN1C(=O)c1ccco1,4.0%
COC(=O)[C@H](NC(=O)[C@@H]1C[C@H](NC(=O)Nc2ccc(F)cc2F)CN1C(=O)c1cccn1C)C(C)C,0.3%
CCn1c(CO)nnc1C1CC(NC(=O)Cc2ccc(-n3cnnn3)cc2)C1 (configuration not stated),4.1%
Cc1cc(CN2CCC3(CCC(=O)N(C(C)C(=O)O)C3)CC2)on1 (configuration not stated),6.4%
CCOc1ccc(C(=O)N2CCN(C(=O)c3nnn4c3COC(c3ccccc3)C4)CC2)cc1 (configuration not stated),-4.4%
O=C(c1ccc(OC(F)(F)F)cc1)N1CCN(c2cc(-c3ccc(Cl)cc3)[nH]n2)CC1,11.2µM*
O=C(CN1CC2CC(C1)[C@H]1CCCC(=O)N1C2)NC1CCN(Cc2ccccc2)CC1 (some centres not stated),-0.9%
CCCC(=O)NC(C)C(=O)N1CCN(c2ccccn2)CC1 (configuration not stated),0.5%
CC1(C(=O)Nc2ccccc2)COCc2cnc(Nc3ccccc3)nc21 (configuration not stated),-15.1%[70.6 µM]
O=C(CCCN1C(=O)COc2ccc(C(=O)COc3ccc(F)cc3Cl)cc21)NCC1CC1,-2.6%
Cc1nc([C@H]2CCN(Cc3ccc(C(F)(F)F)cc3)C[C@H]2NC(=O)C2CC2)n[nH]1,5.1%
C[C@@H](NC(=O)C1CCCCC1)c1onc(-c2ccc(F)cc2)c1C(=O)O,0.8%[70.6 µM]
CN(C)C(=O)c1cccn2nccc12,0.0%[70.6 µM]
CNC(=O)C1(C)CN(Cc2ccccc2)Cc2ccc(N3CCOCC3)nc21 (configuration not stated),-7.0%[70.6 µM]
Cc1cc(=O)n(CC(=O)Nc2ccc3c(c2)OCO3)c(-c2ccccc2)n1,-2.4%
O=C(Nc1ccc(Cl)cc1)c1nc2c(o1)CCN(Cc1cnc[nH]1)CC2,u
CN(C)C[C@@H]1CN(c2ncccn2)C[C@H]1NC(=O)c1ccccc1Cl,2.3%
Cc1noc(C)c1CCCNC(=O)c1ccc(N2CCC[C@H]2CO)nc1,2.1%
O=C(CCc1ccccc1)N1CC2(C1)CN(c1ccccc1)C(=O)O2,5.3%[70.6 µM]

A few values from above:
`CCn1c(CO)nnc1C1CC(NC(=O)Cc2ccc(-n3cnnn3)cc2)C1` (configuration not stated) – NPR1 antag = 4.1%
`CN(C)C(=O)c1cccn2nccc12` – NPR1 antag = 0.0%[70.6 µM]
`O=C(NC1CC1)[C@@H]1C[C@H](Oc2ccccc2)CN1C(=O)c1ccco1` – NPR1 antag = 4.0%

More compounds follow.
molecule,NPR1 antag
CCCNC(=O)CC1CCCN(c2cnn(C)c(=O)c2)C1 (configuration not stated),12.1%
COc1cccc(CN2CCCCCCNC(=O)CC2c2ccccc2)c1 (configuration not stated),-29.2%
O=C1CC2(CCN(Cc3cccc4ccccc34)CC2)Oc2ccccc2N1,-6.3%
CCCN(CC1CCOC1)C(=O)Nc1ccc(C)cc1Cl (configuration not stated),-4.0%
COc1ccc([C@H]2C[C@@H](O)[C@@H](O)[C@@H]2NCc2ccccc2)cc1,u
CS(=O)(=O)N1CCC(CC(=O)N2CC=C(c3ccccc3)CC2)C1 (configuration not stated),-11.7%
CC1(c2ccccc2)N(Cc2cccnc2)C(=O)OC12CCN(Cc1ccc3c(c1)CCO3)CC2 (configuration not stated),-18.6%
c1ccc2ncc(CNC[C@H]3COCc4nc5ccccc5n43)cc2c1,20µM*
Cc1ccc(C)c(C(=O)NCc2nnc3c(-c4nc(C5CC5)no4)cccn23)c1,-2.6%
O=C(NCCO)C1CC(=O)N(c2n[nH]c3ccccc23)C1 (configuration not stated),5.2%
Cc1cc(C)cc(C(=O)N2CCC(c3n[nH]c(=O)n3Cc3ccc(F)cc3)CC2)c1,-0.8%
COCCN1C(=O)c2cccn2CC1CNC(=O)Cc1cccc(F)c1 (configuration not stated),4.9%
O=C(Cc1ccccc1)NCC1CN(C(=O)Cc2cccc(C(F)(F)F)c2)CC12CN(c1ccccc1)C2 (configuration not stated),-2.3%
Cc1nncn1C1CCN(S(=O)(=O)c2ccc(C(C)C)cc2)CC1,-20.7%
COC[C@H]1C[C@@H](NC(=O)c2ccc(OC)cc2)[C@H](O)[C@@H]1O,5.5%[70.6 µM]
COCCN1CCC(C(=O)Nc2cccc(NC(=O)Cc3ccccc3)c2)C1 (configuration not stated),5.6%
COc1ccccc1C(=O)N1CCC2(CC1)COc1ccccc1CN2,5.7%[70.6 µM]
O=C(c1ccccc1)N1CCC(Oc2ncccc2C(=O)N2CCCCC2)C1 (configuration not stated),-0.1%
O=C([C@@H]1C[C@H](Oc2ccccc2)CN1C(=O)C1CCC1)N1CCOCC1,4.1%
CC(=O)c1cc(-c2nc(C3CCOC3)no2)cs1 (configuration not stated),-0.1%
O=C1c2cnc(-c3cc4ccccc4o3)nc2OCCN1CC1CC1,1.41µM*
COc1ccc(-c2ccccc2)cc1N1C(=O)[C@@H]2C[C@H]1CN2C(=O)[C@H]1CCCN1,-0.6%
CN1CC2(CCN(S(C)(=O)=O)CC2)CC1C(=O)N1CCOCC1 (configuration not stated),-0.7%
CN1C[C@H](O)C[C@H]1c1nnc2n1CCN(C(=O)c1cccnc1)CC2,6.7%
COC[C@H]1CCCN1Cc1nc(C2(O)CCN(C(=O)Nc3ccc(F)cc3)CC2)cs1,0.3%
CCCC(=O)N1CCn2c(nnc2[C@@H]2C[C@@H](O)CN2Cc2ccccc2)C1,1.3%
COc1ccc(C2(C(=O)NCCc3ncc(C)n3C3CC3)CC2)cc1,4.5%
NC(=O)[C@@H](Cc1c[nH]c2ccccc12)NC(=O)[C@@H]1CN(S(=O)(=O)c2ccccc2)CCN1C(=O)C1CCNCC1,-0.6%
NC(=O)[C@@H]1CN(C(=O)C2CCCC2)C[C@H]1COc1ccccc1,-15.7%
CCC(=O)N1CCc2c(sc3ncnc(NCc4cccnc4)c23)C1,3.2%
N#Cc1ccc(C(=O)N2C[C@@H]3C[C@H](C2)c2ccc(-c4ccc(OC(F)(F)F)cc4)c(=O)n2C3)cc1,1.4%
Cc1cc(C(=O)N2CCC(OCCOc3ccc(F)cc3)CC2)nn1C,-1.3%
O=C(c1ccc(-n2ccnc2)cc1)N1CCN(c2cccc(Cl)c2)C(=O)C1,-2.0%
COCCC(=O)N1CCC(C2CCN(C(C)=O)CC2)C1 (configuration not stated),2.8%
NC(=O)[C@@H](Cc1c[nH]c2ccccc12)NC(=O)[C@@H]1CN(C(=O)Nc2ccccc2)CCN1C(=O)C1CCCCC1,-2.4%
CCN(CC)CC(=O)N1CCCC(N2CCN(c3ccc(F)cc3)CC2)C1 (configuration not stated),11.9%
Cc1ccc(C(=O)N[C@H]2CO[C@H]3[C@@H]2OC[C@@H]3Nc2nccc(-c3ccc4c(c3)OCO4)n2)cc1,1.9%
CCCN(CC1CCOC1)C(=O)Nc1c(C)cccc1C (configuration not stated),1.1%
COc1ccc(CCc2nc3nccc(-c4cccc(OC)c4)n3n2)cc1,0.2%
CCC(C)N1CCN(C(=O)CCc2ccc3c(c2)CN(C(=O)C2CC2)CCO3)CC1 (configuration not stated),-1.0%
Cn1c(=O)n(C)c2cc(S(=O)(=O)N[C@@H]3CCOC[C@H]3O)ccc21,0.0%
CCCN(CC1CCOC1)S(=O)(=O)c1ccccc1CC (configuration not stated),-9.7%
Cn1c(C(=O)N2CCc3c(n(CCOc4ccccc4)n(-c4ccccc4)c3=O)C2)cc2ccccc21,-19.7%
CN(Cc1ccc(-c2ccccc2)cc1)C(=O)C(C)(C)C,-4.5%[70.6 µM]
Cc1noc(C)c1S(=O)(=O)N1C[C@@H](Oc2cccnc2)C[C@H]1C(=O)NC1CC1,-0.2%
CCNC(=O)N1CCC2(CC1)CC(N(C)Cc1ccccc1)CCO2 (configuration not stated),17.3%
COc1ccc(NC(=O)N2CCN3C(=O)CNC(=O)C3C2)c(C)c1 (configuration not stated),-0.6%
CCc1nncn1C1CCN(S(=O)(=O)c2cccs2)C1 (configuration not stated),-8.7%
CCc1ccc(CNC(=O)CCC2CCCN(S(=O)(=O)c3ccccc3C)C2)cc1 (configuration not stated),-25.7%
COc1ccc(C(=O)N[C@H]2C[C@@H](c3nc(-c4ccc(OC)cc4)no3)N(C)C2)cc1,-3.4%[70.6 µM]
COc1ccc(-c2nnc(CCC(=O)N3CCCCC3)c(=O)[nH]2)cc1,0.1%
CC(=O)Nc1ccc(CN(C)Cc2ccc(-c3ccccc3)cc2)cc1,-10.1%[70.6 µM]
CCSCCNC(=O)c1c(C)noc1-c1ccc(OC)cc1,-2.3%
O=C(Nc1cccc(C(F)(F)F)c1)N1CCC(N2CC3CC(C2)[C@H]2CCCC(=O)N2C3)CC1 (some centres not stated),-2.2%
CCn1cc2c3c(cccc31)CN(C(=O)COc1ccc(F)cc1)CC2,-20.6%
C1=C(c2cc(-c3cccc4cn[nH]c34)cn3cncc23)CCOC1,-21.6%[70.6 µM]
c1cnc(-c2nc(Cn3cc(C4CCOC4)nn3)cs2)nc1 (configuration not stated),2.2%
COc1ccc([C@@H](NC(=O)Cc2c(F)cccc2Cl)C2CC(O)C2)cn1 (some centres not stated),10.8%
CC(C)(C)C(=O)N[C@H]1CO[C@H]2[C@@H]1OC[C@@H]2Nc1nccc(-c2cccc(F)c2)n1,-14.3%[70.6 µM]
CC1CCCN(C(=O)c2cc(-c3cnn(CCO)c3)nc3cc(Cl)ccc23)C1 (configuration not stated),-1.2%

Next section.
molecule,NPR1 antag
Cc1ccc(C(=O)N2CCc3c(nc4cc(-c5ccccc5)[nH]n4c3=O)C2)cn1,-2.4%
Cc1cc(C(=O)N2CCCC(c3nnnn3C)C2)nn1C (configuration not stated),21.4%
COc1ccccc1N1CCN(c2ncccc2CNC(C)Cn2ccnc2)CC1 (configuration not stated),1.7%
C[S+](=O)([O-])CCn1ncc2cc(OCc3cccc(-c4ccoc4)c3)ccc21,u
Cc1ccc(-c2noc([C@@H]3CCCN3C(=O)c3ccccn3)n2)cc1,-0.9%
COCc1c(C(=O)N[C@@H]2CN(Cc3cccnc3)C[C@H]2CN(C)C)noc1C,-3.6%
O=C(CCc1ccccc1)N1CCc2c(nc(-c3ccc(F)cc3)[nH]c2=O)C1,1.7%
O=C(Cc1ccccc1Cl)NC1CCN(c2cc(-c3ccccc3)[nH]n2)C1 (configuration not stated),-1.0%
CCn1c2c(c(=O)n1-c1ccccc1)CCN(C(=O)c1ccc(Oc3ccccc3)cc1)C2,8.91µM*

An excerpt (hit frequency here may not be typical).
